Bioassay records deposited in PubChem BioAssay by National Center for Advancing Translational Sciences (NCATS).
Lassa entry inh: Lassa virus entry inhibition. 300,000 tested, 1.2% active. Lassa virus pseudotype entry inhibition, cell reporter; control for the full effect not named in the record. AID 540256. Potency, µM (series often up to 37.9 µM), for the others: at the top dose activity change, negative = inhibition, actives largely listed as inhibitors; active means well fitted inhibition curve with a large enough effect; inconclusive means small, poorly fitted or top-dose-only effect, or effect the other way; inactive means flat fitted curve, though single readings scatter; tested in HEK293 cells; further: on the % scale 0 is the no-effect control and ±100 the full control effect; nearly all actives have a fitted effect of over 50% in size; luciferase read-out
Cruzain noTriton: blocks cruzain activity in detergent-free assay | purified cruzain, Z-FR-AMC fluorescence, no detergent | Potency, µM, for inactives: max response, negative = inhibition, usual class: inhibitors | 200,000 tested, 2.3% active | AID 1476 | P25779; active means well fitted curve in the direction sought with a large enough effect; inconclusive means small, poorly fitted or top-dose-only effect, or another doubt; inactive means no such curve, though single readings can be large; an effect the other way counts as inactive or inconclusive;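 further: plate controls were enzyme without inhibitor for no effect and buffer without enzyme for full effect; nearly all actives have a fitted effect of over 40% in size; top concentration of the series not given in the record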
Target sequence (P25779 123-467 limits assumed): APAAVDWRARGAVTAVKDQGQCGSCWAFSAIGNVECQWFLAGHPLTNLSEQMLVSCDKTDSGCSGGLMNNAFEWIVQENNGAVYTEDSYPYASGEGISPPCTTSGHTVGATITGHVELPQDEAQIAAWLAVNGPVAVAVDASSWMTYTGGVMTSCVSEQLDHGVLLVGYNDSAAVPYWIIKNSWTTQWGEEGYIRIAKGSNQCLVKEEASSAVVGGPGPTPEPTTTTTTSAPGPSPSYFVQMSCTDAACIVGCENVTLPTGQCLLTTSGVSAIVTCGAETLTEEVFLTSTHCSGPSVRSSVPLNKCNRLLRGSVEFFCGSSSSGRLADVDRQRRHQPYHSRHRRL
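Purified cruzain at 1.5 nM, pre-incubated 15 min with compound at room temperature in 100 mM sodium acetate pH 5.5, 5 mM DTT, 0.00005% Triton X-100. Reaction started with 2 uM Z-FR-AMC; AMC fluorescence increase over 60 s gives rate.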
SARS PLP yeast: SARS-CoV PLP inhibition in yeast; S. cerevisiae expressing SARS-CoV PLpro, growth rescue; control for the full effect not named in the record; Potency, µM (highest dose often 32.9 µM), without a hit: top-dose activity, positive = growth rescue; 330,000 tested, 0.19% active; AID 485353; further: 0% is about no effect; nearly all actives have a fitted effect of over 55% in size; growth read by luminescence after 48 h
MARV entry inh: blocks Marburg virus binding to or entry into cells; Marburg virus pseudotyped entry inhibition, cell reporter; control for the full effect not named in the record; about a third of the inactives were read at about 46 µM; Potency, µM (doses to about 37.8 µM), for inactives: top-dose activity change, negative = inhibition, most hits filed as inhibitors; 300,000 tested, 1.8% active; AID 540276; active = well fitted inhibition curve with a large enough effect; inconclusive = small, poorly fitted or top-dose-only effect, or effect the other way; inactive = flat fitted curve, though single readings scatter; tested in HEK293 cells; about a fifth of its hits are not listed in these tables; further: on the % scale 0 is the no-effect control and ±100 the full control effect; luciferase read-out
RE007 growth inh: less growth of the S. pombe RE007 Vpr strain | 360,000 tested, 0.21% active | Potency, µM (doses to about 92.2 µM), inactives show at the highest dose activity change, negative = less growth | S. pombe RE007 Vpr strain, BacTiter-Glo ATP luminescence, 24 h; control for the full effect not named in the record; active = well fitted falling curve with a large enough effect; inconclusive = small, poorly fitted or top-dose-only effect; inactive = no such curve, though single readings can be large or run the other way;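 further: on the % scale 0 is the no-effect control and ±100 the full control effect; nearly all actives have a fitted effect of over 50% in size; the assay follows cell death caused by Vpr and the record does not say whether a fall means rescue or toxicity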
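Fission yeast strain RE007, carrying one chromosomally integrated HIV-1 vpr copy, was seeded at OD 0.01 in PMG+AL medium with 23 nL pinned compound. After 24 h at 30 °C and 99% humidity, viability was read by BacTiter-Glo luminescence.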
2A StopGo: lowers the luciferase signal of an FMDV 2A StopGo reporter; human cells with a luciferase reporter of 2A StopGo recoding; control for the full effect not named in the record; Potency, µM (series often up to 57.9 µM), for inactives: at the highest dose signal change, negative = less light; 410,000 tested, 1.2% active; AID 1159524; active = well fitted falling curve with a large enough effect; inconclusive = small, poorly fitted or top-dose-only effect; inactive = no such curve, though single readings can be large or run the other way; tested in HEK293T cells; further: on the % scale 0 is the no-effect control and ±100 the full control effect; nearly all actives have a fitted effect of over 45% in size; luciferase light after 4 h
Cruzain inh Det: cruzain (T. cruzi) inhibition with detergent. Potency, µM, inactives show max response, negative = inhibition, usual class: inhibitors. AID 1478. purified cruzain, Z-FR-AMC fluorescence, 0.01% Triton. 200,000 tested, 0.43% active; active means well fitted curve in the direction sought with a large enough effect; inconclusive means small, poorly fitted or top-dose-only effect, or another doubt; inactive means no such curve, though single readings can be large; an effect the other way counts as inactive or inconclusive;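 further: plate controls were neutral wells for no effect and buffer without enzyme for full effect; nearly all actives have a fitted effect of over 40% in size; top concentration of the series not given in the record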
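In this qHTS format, compounds are incubated with 1.5 nM cruzain for 15 min at room temperature before 2 uM Z-FR-AMC is added. Release of AMC is followed at 360/450 nm, and progress is taken as the 60 s fluorescence difference.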
NS1 function inh: inhibitors of influenza NS1 protein function. S. cerevisiae slowed by influenza A NS1, growth recovery by OD600. Potency, µM (top dose mostly 46.1 µM), without a hit: top-dose activity, positive = more growth. 270,000 tested, 0.4% active. AID 2326; further: actives are rising curves; nearly all actives have a fitted effect of over 50% in size
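Recovery from NS1-induced slow growth read by OD600 in budding yeast switched to galactose assay medium (pH 6.0, -URA) at 1:100 dilution. Compound 23 nl per well; the matching strain lacking NS1 serves as control.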
Starred values were filed as active, the others as inactive; ? = inconclusive; nt = not tested or not shown; & = joins results of further samples; [ ] = remark or other dose. Unless noted, the call rests on the fitted dose curve; in most records, active means well fitted rising curve with a large enough effect; inconclusive means small, poorly fitted or top-dose-only effect; inactive means no such curve, though single readings can be large or run the other way. Potency means the concentration at half of the fitted maximal effect.

SMILES	Lassa entry inh	Cruzain noTriton	SARS PLP yeast	MARV entry inh	RE007 growth inh	2A StopGo	Cruzain inh Det	NS1 function inh
CC1(C)CC(=O)C(CC(=O)N2CCC(Cc3ccccc3)CC2)C(=O)C1	8%[46.1 µM]	nt	-4%	10%[46.1 µM]	-11%	-1%	nt	nt
COc1cc(S(=O)(=O)NC2CCCC2)ccc1Cl	-6%	-3%	-14%	21%	-20%	31%[activator]	1.4%	-48%
Cc1ccc(NC(=O)c2c(NC(=O)c3ccccc3)sc3c2CCC3)cc1	9%[46.1 µM]	5%	nt	nt	nt	0%	-0.5%	nt
C/C(=N\NC(=O)c1nn(C)cc1Br)c1ccncc1	18%	-4%	0%	2%	0%	15%	-1.6%	-21%
Cc1ccc(CN2CCN(Cc3cccc4c3OCO4)CC2CCO)cc1 (stereo unspecified)	9%[46.1 µM]	nt	0%	?	-5%	-16%	nt	-3%
Cc1ccc(C)c(OCCC(=O)NCCc2ccc(Cl)cc2)c1	-11%	nt	-7%	17%	-3%	-16%	nt	-25%
COc1ccc(CN(C(=O)c2oc3ccccc3c2C)C2CCS(=O)(=O)C2)cc1 (stereo unspecified)	?	29%	4%	-7%	14%	?	-8.7%	-8%
Cc1nc(C)c(-c2ccc(SCC(=O)Nc3cccc(Cl)c3)nn2)s1	-1%[46.1 µM]	nt	2%	1%[46.1 µM]	-8%	?	nt	-4%
CCCN1CCc2c(sc(NC(=O)Cc3ccc(F)cc3)c2C(N)=O)C1	-2%[46.1 µM]	nt	8%	-23%[46.1 µM]	7%	-11%	nt	-9%
Cc1cccc(OCc2nnc(SCC(=O)Nc3sc(C)c(C)c3C#N)n2C)c1	-11%	6%	-1%	9%	21%	13%	-0.2%	11%
Cc1ccc(S(=O)(=O)N2CCN(C(=O)CSc3ccccn3)CC2)c(C)c1	1%	nt	-1%	4%	-17%	1%	nt	nt
O=C(c1ccncc1)N1CCN(S(=O)(=O)c2ccc3ccccc3c2)CC1	nt	nt	2%	nt	-8%	?	nt	4%
CC(=O)c1ccc(Nc2cc(C)nc3ncnn23)cc1	8%	nt	0%	-1%	-1%	-2%	nt	1%
Cc1cccc(OCC(=O)Nc2ccc(S(=O)(=O)N(Cc3ccccc3)c3ccccc3)cc2)c1	-5%[46.1 µM]	3%	nt	2%[46.1 µM]	nt	-29%	-0.9%	nt
CCc1cccc(CC)c1NC(=O)Cn1c(-c2ccc(F)cc2)noc1=O	9%	nt	0%	0%[46.1 µM]	4%	-1%	nt	0%
O=C(NCc1cccs1)C1CC(O)CN1C(=O)Nc1ccccc1 (stereo unspecified)	21%[46.1 µM]	nt	-3%	?	-7%	0%	nt	5%
C/C(=N\NC(=O)c1nonc1N)c1cccs1	10%	2%	14%	?	-15%	44%[activator]	-3.2%	1%
COc1cc(C)c(N)cc1C(C)C	?	3%	2%	-22%	-9%	0%	-1.6%	-2%
CC(C)COc1cccc(C(=O)Nc2ccc(CN3CCOCC3)cc2)c1	?	nt	0%	?	-4%	-19%	nt	3%
Cc1cc(C)n(CC(=O)NC2CCCc3c2cnn3-c2ccc(C)c(C)c2)n1 (stereo unspecified)	?	nt	-2%	3%[46.1 µM]	-1%	6%	nt	-3%
COc1nc(Oc2ccc(=O)n(-c3ccccc3)n2)nc(N(C)C)n1	3%[46.1 µM]	3%	nt	-2%[46.1 µM]	nt	-14%	-1.3%	nt
O=C(CC(C(=O)N1CCc2ccccc21)n1ccnc1)NCc1ccccc1 (stereo unspecified)	-17%	5%	3%	-4%	-12%	-21%	7.2%	-4%
COc1ccc(NC(=S)N2CCN(S(=O)(=O)c3ccccc3)CC2)cc1OC	6%	nt	-1%	3%	-16%	75%[activator]	nt	8%
CC(Oc1ccc(C#N)cc1)C(=O)c1ccc(F)c(F)c1 (stereo unspecified)	-3%[46.1 µM]	nt	-5%	-1%[46.1 µM]	-10%	-21%	nt	-2%
CCOc1ccccc1C1NC(=O)NC(C)=C1C(=O)OCc1ccccc1 (stereo unspecified)	nt	nt	5%	nt	5%	-21%	nt	-1%
Remaining list, next part
SMILES	Lassa entry inh	Cruzain noTriton	SARS PLP yeast	MARV entry inh	RE007 growth inh	2A StopGo	Cruzain inh Det	NS1 function inh
c1nc(N2CCC3(CC2)OCCO3)c2c3c(sc2n1)CCCC3	?	10%	-6%	-29%[46.1 µM]	-22%	0%	-15%	-67%
O=C1S/C(=C\C=C\c2ccco2)C(=O)N1c1ccccc1	?	-1%	-19%	?	2%	10%	-6.5%	15%
Cc1ccc(C(=O)NCCc2ccc(F)cc2)s1	?	nt	-1%	?	15%	12%	nt	nt
CCN(CC)S(=O)(=O)c1cccc(C(=O)Nc2cc(C)on2)c1	nt	nt	-5%	nt	-2%	11%	nt	2%
CN(C)S(=O)(=O)c1cccc(C(=O)OCC(=O)Nc2sccc2C#N)c1	1%	10%	7%	-4%	4%	31%[activator]	-1.5%	10%
CCCCOc1ccc(C2c3c(oc4ccc(C)cc4c3=O)C(=O)N2CCCN(C)C)cc1OCC (stereo unspecified)	3%[46.1 µM]	13%	nt	-3%[46.1 µM]	nt	-20%	-2.6%	nt
Clc1ccc(/C=C/c2nc(Cl)c(-c3ccc(Cl)cc3)c(Cl)n2)cc1	nt	nt	2%	nt	34%	-14%	nt	5%
COc1ccc(/C=C2/SC(=S)N(c3ccc(S(=O)(=O)Nc4nccs4)cc3)C2=O)cc1	-12%	nt	0%	10%[14.2 µM]	-4%	0%	nt	8%
CC1(C)Cc2ccccc2C2=C(C(=O)N3CCCCCC3)C(=O)C(=O)N21	14%	nt	-3%	-11%	6%	1%	nt	nt
O=C(CCn1c(=O)c2sccc2n(CC(=O)OCc2ccccc2)c1=O)NCc1ccco1	-7%	7%	4%	12%	-4%	-9%	4.5%	9%
O=C(O)C1CCN(C(=O)c2scc3c2OCCO3)CC1	3%	-4%	-4%	8%	6%	-20%	0.9%	-1%
CCOC(=O)Cc1csc(NC(=O)COc2ccc3c(C)cc(=O)oc3c2)n1	nt	nt	1%	nt	-9%	?	nt	2%
O=C(NCc1ccccc1)c1nccnc1CO	12%	nt	1%	10%	3%	1%	nt	6%
Cc1cc(C)n2nc(SCC(=O)Nc3c(C)n(C)n(-c4ccccc4)c3=O)nc2n1	3%	-3%	3%	-2%	12%	2%	1.7%	5µM*
Cc1nnc(NC(=O)c2ccc3c(c2)OCO3)s1	?	nt	-1%	-16%[46.1 µM]	-4%	43%[activator]	nt	-2%
COc1ccccc1N1CCN(Cc2nc(N)nc(Nc3ccc(C)c(Cl)c3)n2)CC1	?	-17%	5%	-41%&-41%	10%	-3%	-11%	-53%
CCN(CC)S(=O)(=O)c1ccc2c(c1)N(CC(=O)NCC(C)c1ccccc1)C(=O)CO2 (stereo unspecified)	-18%[46.1 µM]	14%	nt	17%[46.1 µM]	nt	-3%	-0.1%	nt
COc1cc(CNC(=O)c2cnc(C)cn2)cc(OC)c1	-1%	nt	3%	11%	8%	2%	nt	0%
O=C(/C=C/c1ccc(Cl)cc1Cl)N1CCN(c2ccccc2[N+](=O)[O-])CC1	?	5%	0%	1%	4%	-15%	-8.3%	4%
COc1cccc(N(CC(=O)NCc2ccccc2)C(=O)CCC(=O)Nc2nccs2)c1	?	nt	-1%	-18%[46.1 µM]	2%	5%	nt	-27%
COc1ccc(-n2c(SCC(=O)NCC3CCCO3)nc3c([nH]c4ccccc43)c2=O)cc1OC (stereo unspecified)	nt	nt	-1%	nt	1%	-10%	nt	-14%
Cc1cccc(NC(=S)NC2CC3CCC(C2)N3Cc2ccco2)c1 (stereo unspecified)	0%	-1%	-2%	?	-8%	nt	4.1%	6%
Cc1ccccc1-n1c(C)nnc1SCC(=O)N1CC(=O)Nc2ccccc21	20%	3%	1%	?	-10%	nt	3.1%	5%
CS(=O)(=O)N(Cc1ccccc1)c1ccc(C(=O)NC2CCCCC2O)cc1 (stereo unspecified)	10%	-3%	6%	20%	-5%	-17%	-1.0%	1%
COc1ccc(-c2cc(C(=O)NC3CC3)c3ccccc3n2)cc1	nt	nt	-2%	nt	2%	-1%	nt	-17%
Other results:
SMILES	Lassa entry inh	Cruzain noTriton	SARS PLP yeast	MARV entry inh	RE007 growth inh	2A StopGo	Cruzain inh Det	NS1 function inh
CCOc1ccccc1NC(=O)CSc1nnc(-c2ccccn2)n1Cc1ccco1	-1%	12%	0%	1%&1%	13%	-27%	-5.1%	-118%
CC1SC(=NC(=O)c2ccncc2)NC1=O (stereo unspecified)	11%	nt	0%	23%[46.1 µM]	40%	18%	nt	11%
CC(Oc1ccccc1)C(=O)Nc1oc(-c2ccco2)c(-c2ccco2)c1C#N (stereo unspecified)	-7%	-9%	-3%	-1%	9%	-15%	-11%	20%
Cc1cc(NS(=O)(=O)c2ccc(NC(=O)CNS(=O)(=O)c3ccccc3)cc2)nc(C)n1	?	nt	-21%	16%	7%	39%[activator]	nt	nt
CN(CC(=O)NCCC1=CCCCC1)S(=O)(=O)c1ccc2c(c1)c(=O)n(C)c(=O)n2C	nt	24%	-4%	7%	-13%	-2%	2.0%	-28%
C[C@@H]1CC[C@@]2(O[C@H](CCO)C[C@H](O)[C@H]2O)O1	nt	nt	1%	nt	-4%	1%	nt	-3%
CC(=O)c1ccc(NC(=O)c2cn(C)c(=O)c3ccccc23)cc1	23%[46.1 µM]	2%	nt	9%[46.1 µM]	14%	10%&15%	-1.8%	nt
Cc1nc(C)c(C(=O)OCC(=O)Nc2ccccc2SCC#N)s1	13%	nt	2%	9%	8%	?	nt	nt
COc1ccccc1-c1nnc(SCC(=O)O)n1C	-20%	3%	3%	8%	1%	nt	3.3%	-6%
c1ccc(C(CN2CCOCC2)c2ccccc2)cc1	-2%	15%	2%	20%	5%	4%	-1.6%	2%
COC(=O)c1ccccc1NC(=O)N1CCC(N2CCN(Cc3ccc(F)cc3)C(=O)C2=O)CC1	13%[46.1 µM]	6%	nt	nt	nt	-4%	0.4%	nt

Compounds were not picked by outcome (roughly 4.7% active in at least one column).
